Bioassay records from PubChem BioAssay.
PINK1 modulator: A Quantitative High throughput Screen to Identify Chemical Modulators of PINK1 Expression | Potency, µM (highest dose often 76.6 µM), for inactives: at the highest dose activation (PINK1 increase), actives largely listed as activators | PINK1 immunofluorescence, high-content cytometry, 24 h | 410,000 tested, 0.2% active; active = well fitted activation curve with a large enough effect; inconclusive = small, poorly fitted or top-dose-only effect; inactive = flat fitted curve, though single readings scatter; cell line not stated here;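 note: potency is the fitted concentration of half-maximal effect; % of control where 0% means no effect; nearly all actives have a fitted effect of over 65% in size; a mitochondrial uncoupler was the plate control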
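PINK1 protein level read as immunofluorescence by microplate cytometer in a fixed, stained stable cell line after 24 h exposure to five compound concentrations, with CCCP as control.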
gsp antagonist: qHTS for Antagonists of gsp, the Etiologic Mutation Responsible for Fibrous Dysplasia/McCune-Albright Syndrome: qHTS; gsp-mutant cells, cAMP HTRF, 30 min; control for the full effect not named in the record; 340,000 tested, 0.4% active; AID 624288, 2012; Potency, µM (top dose mostly 76.9 µM), for the others: at the highest dose activity change, negative = inhibition, most hits filed as inhibitors; active = falling curve of any shape with a large fitted effect; inconclusive = falling curve, mostly with a smaller effect; inactive = flat or rising curve; cell line not stated here;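 note: intracellular cAMP measured with PDE inhibitor Ro 20-1724 present during compound exposure; potency is the fitted concentration of half-maximal effect; % is set by controls: 0 for no effect and ±100 for the full control effect; nearly all actives have a fitted effect of over 65% in size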
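G418-selected cells were plated in DMEM/10% FBS for 16-24 h at 37C, then treated with compounds plus the PDE inhibitor […] (300 uM solution added) for 30 min at 37C. Intracellular cAMP was measured by HTRF after 30 min lysis at room temperature.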
Sfp PPTase inh: qHTS Assay for Inhibitors of Bacillus subtilis Sfp phosphopantetheinyl transferase (PPTase) | 4'-phosphopantetheinyl transferase ffp (Bacillus subtilis), Q9F4F7 | Biochemical Sfp PPTase activity, qHTS | Potency, µM, for inactives: max response, negative = inhibition, actives largely listed as inhibitors | 310,000 tested, 3.5% active | AID 1490, 2009; active = well fitted inhibition curve with a large enough effect; inconclusive = small, poorly fitted or top-dose-only effect, or another doubt; inactive = no such curve, though single readings can be large or run the other way;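 note: the enzyme is Sfp with the accession as filed and its product quenches rhodamine fluorescence; potency is the fitted concentration of half-maximal effect; 0% = enzyme reaction without inhibitor and -100% = no enzyme wells; top concentration of the series not given in the record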
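Buffer: 50 mM Hepes-Na pH 7.6, 10 mM MgCl2, 0.01% Nonidet P-40, 0.01% BSA. Enzyme 15 nM, pre-exposed to compound 15 min; substrates then added and fluorescence change tracked over 30 min.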
D2 agonist: Beta-Arrestin HTS for Positive Allosteric Modulators of the Human D2 Dopamine Receptor: Agonists; AID 624465, 2012; 360,000 tested, 0.084% active; D(2) dopamine receptor (Homo sapiens), P14416; activation, % (no concentration beside the values); DiscoveRx PathHunter D2 beta-arrestin, luminescence, 90 min; 100% = 57 uM dopamine signal; in the data active = activation above about 40%; inconclusive = about 15% to 40%; inactive = below about 15%; note: compound concentration not given in the record; the text of the record calls up to 30% inactive
Target sequence (P14416 whole entry, looked up): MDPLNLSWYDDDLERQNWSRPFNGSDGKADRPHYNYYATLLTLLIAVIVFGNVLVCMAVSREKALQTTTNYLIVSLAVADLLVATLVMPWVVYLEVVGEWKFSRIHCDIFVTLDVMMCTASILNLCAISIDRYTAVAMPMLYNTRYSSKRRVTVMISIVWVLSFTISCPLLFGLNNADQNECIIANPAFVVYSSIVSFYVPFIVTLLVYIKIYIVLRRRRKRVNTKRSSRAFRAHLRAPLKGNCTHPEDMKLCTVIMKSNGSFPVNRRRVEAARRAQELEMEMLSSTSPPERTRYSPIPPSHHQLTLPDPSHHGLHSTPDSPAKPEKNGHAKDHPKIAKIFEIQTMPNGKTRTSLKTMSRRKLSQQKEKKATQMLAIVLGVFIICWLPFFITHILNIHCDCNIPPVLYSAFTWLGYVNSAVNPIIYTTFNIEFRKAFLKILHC
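DiscoveRx PathHunter D2 beta-arrestin cells (2,100/well) attached overnight, then compound-stimulated 90 min at 37 C in HBSS/10 mM HEPES/0.1% Tween-20 buffer; beta-galactosidase complementation read by luminescence after 1 h at ambient temperature. Dopamine 57 uM final (EC100) as control.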
gsp ag: qHTS for Agonist of gsp, the Etiologic Mutation Responsible for Fibrous Dysplasia/McCune-Albright Syndrome: qHTS | 340,000 tested, 0.13% active | gsp mutant cells, cAMP HTRF, 30 min; control for the full effect not named in the record | AID 624287, 2012 | Potency, µM (highest dose often 76.9 µM), for inactives: top-dose activation (cAMP increase), most hits filed as activators; active = well fitted activation curve with a large enough effect; inconclusive = small, poorly fitted or top-dose-only effect, or another doubt; inactive = no such curve, though single readings can be large or run the other way; cell line not stated here;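 note: phosphodiesterase inhibitor Ro 20-1724 added with compounds to block cAMP breakdown; potency is the fitted concentration of half-maximal effect; nearly all actives have a fitted effect of over 60% in size; about a fifth of the inactives were tested at one dose only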
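Cells stably selected in G418 were plated at 2000/well, grown 16-24 hr, then given compounds in DMSO with the PDE inhibitor […] (300 uM solution added) for 30 min at 37C; cAMP was read by HTRF.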
ClpP mod: qHTS Assay for Activators of ClpP; ATP-dependent Clp protease proteolytic subunit (Bacillus subtilis (strain 168)), P80244; purified B. subtilis ClpP, FRET peptide cleavage, 20 min; Potency, µM (top dose mostly 57.5 µM), inactives show at the highest dose activity change, negative = active; 340,000 tested, 1.9% active; active = well fitted falling curve with a large enough effect; inconclusive = small, poorly fitted or top-dose-only effect; inactive = no such curve, though single readings can be large or run the other way; note: potency is the fitted concentration of half-maximal effect; the source files actives as falling curves though it sought activators and does not explain the sign; nearly all actives have a fitted effect of over 65% in size; many hits overshoot -100%
Target sequence (P80244 whole entry, looked up): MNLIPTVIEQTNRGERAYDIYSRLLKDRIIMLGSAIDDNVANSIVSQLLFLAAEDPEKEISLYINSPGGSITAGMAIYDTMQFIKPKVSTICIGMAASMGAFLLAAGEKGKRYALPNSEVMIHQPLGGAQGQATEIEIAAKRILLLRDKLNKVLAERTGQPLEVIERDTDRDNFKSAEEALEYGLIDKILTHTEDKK
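Purified B. subtilis ClpP, 10 microg/mL final in Tris/HCl pH8 with KCl, BSA, glycerol and Tween-20, cleaved an Abz/nitrotyrosine-quenched decapeptide. Fluorescence (ex 320, em 430) was read at 0 and 20 min at room temperature. Delta was normalized to 5.8 microM ADEP and DMSO/no-enzyme controls.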
Menin MLL FP FL: qHTS Assay for Inhibitors Targeting the Menin-MLL Interaction in MLL Related Leukemias: Competition With Fluorescein Labeled MLL-derived Peptide; AID 1766, 2009; 290,000 tested, under 10 active; FP activity change, % at 61.4 µM; Fluorescence polarization, fluorescein-MLL peptide displacement from menin; inconclusive = falling polarisation curve, or a change in total fluorescence; inactive = total fluorescence flat and polarisation flat or rising; no compound was filed as active; the % refers to the polarisation; negative = inhibition;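 note: % of control where 0% means no effect; inhibitors lower the polarisation; unlabelled MLL peptide was the positive control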
Numbers without * were called inactive; ? = inconclusive; · = not tested or not shown; & = joins results of further samples; [ ] = another dose, or the depositor's remark. Not a hit list. Share with any hit: about 5.1%.

Each structure is followed by: PINK1 modulator, Sfp PPTase inh, gsp ag, ClpP mod, D2 agonist, gsp antagonist, Menin MLL FP FL
- CC1(C(=O)O)CCC(C(N)=O)C1(C)C (stereo unspecified)
→ -1.2%, 12.2%, -14.6%[15.4 µM], ·, -4.6, 11.7%, -0.4
- O=C(Nc1ccccc1)C1CCN(C(=O)c2ccc(Br)cc2)CC1
→ -1.7%, 10.4%, 0.1%, 1.0%, 3.0, 2.8%, -0.3
- O=C(CNC(=O)c1ccc(Cl)cc1)OCc1nc2ccccc2s1
→ 1.7%, -2.8%, 12.7%[15.4 µM], ·, -1.7, 2.1%, 1.0
- CCOc1ccc(-c2c(C)n([O-])c3c([n+]2=O)CCCC3)cc1
→ -0.9%, 0.8%, 1.8%, -29.8%, -1.1, -10.7%[15.4 µM], -0.7
- CCN(CC)c1ccc(/C=N/N=C(N)N)c(O)c1
→ 3.7%, 6.2%, ?, -25.3%, 2.9, 12.3%, 11.1
- Cn1cnc([N+](=O)[O-])c1Sc1ccc(Br)cc1
→ -0.5%, 7.0%, 10.6%, 1.1%, 0.3, 1.7%, 2.9
- COc1ccc(C)cc1S(=O)(=O)N(CC(=O)NCc1ccc(Cl)cc1)Cc1ccccc1
→ -2.9%[38.3 µM], 6.1%, -11.9%, -3.0%, 0.7, -12.5%, 0.0
- Cn1c(=O)n(Cc2ccccc2F)c2ccccc21
→ 3.8%, 5.0%, -2.4%, -1.9%, -2.0, -22.7%, -1.2
- CCOCCOc1cccc(C(=O)NC(C)c2ccc3ccccc3c2)c1 (stereo unspecified)
→ 0.9%, 7.7%, -7.7%, -1.9%, -2.5, -19.3%, 1.0
- O=C(COc1ccc2c3c(c(=O)oc2c1)CCC3)N[C@@H](CSCc1ccccc1)C(=O)O
→ -0.2%, 27.7%, ·, 4.8%, 3.3, 8.6%, -0.4
- Clc1ccc(OCCCNCc2ccccc2)c2ccccc12
→ -1.3%, 56.2µM*, -50.2%[inhibitor], ·, -0.9, 14.1%, 8.3
- COc1ccc(NS(=O)(=O)c2cccc(C(=O)Nc3cccc(C(=O)O)c3)c2)cc1
→ -0.4%, 13.6%, -5.0%, ·, -2.8, 4.1%, -0.1
- OCC1OC(n2cnc3c(SCc4ccccc4)nc(NO)nc32)C(O)C1O (stereo unspecified)
→ -0.6%, ·, 20.9%, -1.6%, 9.0, ·, ·
- O=C(NC1CC1)c1nc(Cn2ccc([N+](=O)[O-])n2)no1
→ 0.7%, 6.3%, -0.9%, ·, -1.1, -0.3%, -9.6
- O=C(O)CC1S/C(=N\N=C2CCCCCCC2)N(c2ccccc2)C1=O (stereo unspecified)
→ 1.0%, 20.7%, 6.1%[15.4 µM], ·, 0.6, -10.8%, 1.0
- COc1ccc(Cl)cc1NC(=O)N1CCC(C)CC1
→ 18.3%, -10.1%, 0.7%[15.4 µM], ·, -0.8, 3.5%, 4.0
- N/C(CC(=O)Nc1cccc(C(F)(F)F)c1)=N/O
→ 2.2%, 19.3%, -2.0%, 0.7%, -0.3, 9.3%, 4.2
- CCCNC(=O)CS(=O)Cc1nc(-c2ccc(OC)cc2)oc1C (stereo unspecified)
→ -0.9%, 21.8%, -33.3%[inhibitor], 3.8%, -1.2, -4.2%, 3.5
- O=C(NNc1ncnc2c1cnn2-c1ccc(F)cc1)c1ccco1
→ 1.5%, 12.3%, 0.1%, -7.4%, -2.7, 0.7%, ·
- COc1ccccc1NS(=O)(=O)c1cccc(C(=O)N2CCN(C/C=C/c3ccccc3)CC2)c1
→ 3.4%, 9.9%, -8.4%, -2.6%, -1.6, -27.6%, 0.2
- O=C(CN1C(=O)c2cccnc2Oc2ccc(Cl)cc21)NC1CCCC1
→ 3.9%, -16.5%, ?, ·, 4.5, 2.1%, 1.5
- CCOC(=O)CN1C(c2ccccc2O)Nc2ccc(Br)cc2C1c1ccccc1 (stereo unspecified)
→ 14.3%, 6.0%, -18.5%[15.4 µM], -0.1%, 0.3, 4.3%, -0.2
- Cc1c(C)n(CC(O)CNc2ccccc2)c2ccccc12 (stereo unspecified)
→ 16.2%, -27.3%, -31.1%[inhibitor], -18.6%, 3.7, 11.8%, 3.3
- CCN(Cc1ccncc1)C(=O)Cc1cccs1
→ -0.3%, 12.5%, -6.6%, 0.1%, 5.2, 8.5%, -2.9
- CCCCn1c(N)c(N(CCOC)C(=O)CCCc2cccs2)c(=O)[nH]c1=O
→ -0.3%, ·, -26.4%, -0.6%, ?, 12.8%, ·
- O=C(Nc1nncs1)C1CC(=O)N(C2CCCC2)C1 (stereo unspecified)
→ -0.6%, 5.6%, 10.8%, -1.3%, -21.2, 8.1%, -1.0
- Cc1ccc(C(=O)N2CCC(C(=O)NCc3cccnc3)CC2)cc1
→ -0.6%, -12.1%, -0.7%, 0.9%, -2.2, 7.4%, -1.0
- CCc1nc(NCCCn2ccnc2)c2oc3ccccc3c2n1
→ 0.4%, -5.2%, -1.8%, -14.9%, -1.8, 8.3%, 1.5
- O=C(COC(=O)COc1ccccc1)NC1CCCc2ccccc21 (stereo unspecified)
→ -0.3%, ?, 2.1%, 1.6%, -5.6, 0.8%, 6.9
- O=c1cc(CN2CCN(S(=O)(=O)c3ccccc3[N+](=O)[O-])CC2)nc2sccn12
→ -1.3%, 4.3%, 0.1%, ·, 0.5, -2.9%, 1.5
- CCOC(=O)/C(C#N)=C1\Nc2ccccc2N=C1N(CC(C)C)CC(C)C
→ ?, -2.3%, 18.5%, -2.0%, 0.4, -1.0%, ?
- CC(C)NC(=S)N1CCN(C/C=C/c2ccccc2)CC1
→ 0.8%, 16.5%, 6.2%[15.4 µM], ·, -3.7, 0.9%, 5.4
- Cc1ccc(-c2csc(NC(=O)c3cccs3)n2)cc1
→ 10.3%, ?, -1.3%, -7.8%, -1.6, -7.5%, 1.7
- COc1ccc(S(=O)(=O)N2CCOCC2)cc1C(=O)NC1CCCCCC1
→ 0.2%, ·, 9.2%, -1.2%, -1.3, 7.1%, ·
- COC(=O)c1c(NS(=O)(=O)c2ccc3ccccc3c2)sc2c1CCCC2
→ -0.9%[38.3 µM], -7.8%, -15.2%, 0.9%, -5.6, -35.5%, ?
- CSc1c(CC(=O)Nc2ccccc2Cl)n(Cc2ccccc2)c2ccccc12
→ ?, ?, -52.5%[inhibitor], -3.8%, -2.8, -11.5%, 4.3
- O=C(Nc1ccc(F)c(Cl)c1)c1cc(C2CCCN(S(=O)(=O)c3ccccc3)C2)on1 (stereo unspecified)
→ 2.1%, ·, ·, -5.4%, 4.7, ·, ·
- CCOc1ccccc1Nc1nc(N)nc(CN(C)C2CCCCC2)n1
→ -1.9%, -8.8%, 5.5%, -0.9%, -2.5, 6.4%, 6.4
- Cc1ccc2c(c1)N(CCC(=O)NC1CCCCC1C)C(=O)CO2 (stereo unspecified)
→ 5.0%, 17.8%, -36.8%[inhibitor], ·, 2.3, -0.7%, -2.3
- COc1ccc(/C=N/NC(=O)C2(C)NC(C)(C)Cc3ccccc32)cc1 (stereo unspecified)
→ 1.8%, 6.6%, -13.4%[15.4 µM], ·, -2.3, 0.7%, 3.7
- CN1CCN(c2ncc3nc(CCc4ccccc4)c(=O)n(Cc4ccc(F)cc4)c3n2)CC1
→ 0.7%, -13.8%, ·, ·, ·, ·, 7.5
- CC1(C)C(=O)NCCN1C(=O)CCCC(=O)O
→ 0.2%, 5.3%, 9.2%, 0.1%, -3.7, 3.7%, 1.2
- O=C(O)CCc1ccc(-c2ccccc2)n1-c1ccc(C(=O)O)cc1
→ 1.1%&0.5%, -5.4%, -11.5%, -6.4%&-10.3%, -5.2, 7.2%, -0.2
- O=C(c1ccc(Br)s1)N1CCc2ccccc2C1
→ -0.2%, 1.1%, 10.9%, -1.6%, 0.6, -12.8%, ·
- CC1(C(=O)OCC(=O)Nc2ccc(S(=O)(=O)N3CCOCC3)cc2)CC1(Cl)Cl (stereo unspecified)
→ 1.5%, ·, 22.3%[15.4 µM], -1.0%, -2.6, -2.6%, ·
- CC1=C(C(=O)Nc2cccc(C)n2)C(c2ccc3c(c2)OCO3)C2=C(CC(c3ccco3)CC2=O)N1 (stereo unspecified)
→ 1.5%, ?, -7.6%, -20.9%, 0.2, -17.0%, -4.3
- CC(C)(C)c1ccc(Oc2ccc(N)cn2)cc1
→ 1.9%, -6.3%, 7.5%, 3.8%, -4.4, -2.2%, 1.9
- Cc1onc(-c2ccccc2)c1C(=O)N(Cc1ccccc1)C(C)C
→ 1.5%, -11.8%, 2.2%, 2.6%, -2.8, -1.5%, 3.8
- O=C(c1ccco1)N(Cc1cc2ccccc2[nH]c1=O)C1CCCCC1
→ -1.0%, 2.9%, -34.5%[inhibitor], -12.7%, -3.4, -11.8%, 0.4
- CC(OC(=O)c1ccc(Cl)c(S(N)(=O)=O)c1)C(=O)NCc1ccc2c(c1)OCO2 (stereo unspecified)
→ -0.8%, ·, -4.9%[15.4 µM], ·, -3.4, 5.5%, ·
- CCOCCOC(=O)C1=C(C)Nc2ccc(C)cc2S1
→ 1.4%[38.3 µM], ?, 3.3%, -2.8%, -4.0, 1.9%, -1.4
